# Source: PubChem
# LYP phosphatase = PTPN22 lymphoid phosphatase activity blockers – biochemical, fluorescence intensity, uHTS (AID 1779). recombinant LYP phosphatase, fluorescence intensity; higher % means a stronger effect. inhibition, % at 11.5 µM; hits with a dose series show IC50 in µM. 0.054% of 290,000 active;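 note: plate controls were vehicle with enzyme for no effect and no enzyme for full effect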
# Siah-1 displacement = Siah-1 peptide-binding antagonists, primary screen, biochemical, fluorescence polarization, rhodamine-plectin, uHTS (AID 1817); Siah-1 / rhodamine-plectin peptide fluorescence polarization; higher % means a stronger effect; displacement, % at 20 µM, or IC50 in µM where a hit was titrated; 0.02% of 290,000 active;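 active = displacement of at least 50% at 20 µM, with a fluorescence ratio check between 0.3 and a set limit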;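 note: plate controls were Siah plus tracer with DMSO for no effect and tracer alone without Siah for full effect; strong numbers were not always called active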
# Myeloid diff MLP = myeloid differentiation induction | calls only at 10 µM | 1% of 360,000 active | ER-HoxA9 myeloid progenitors, lysozyme-GFP differentiation, flow cytometry;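 active = normalized GFP-positive differentiation at or above the plate's own cutoff, the solvent-only control mean plus 3 SD; inconclusive = no clear call, values can overlap the other calls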;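 note: cells exposed to compound for four days before flow analysis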
# HIV fusion peptide = inhibitors of HIV fusion peptide binding, primary screen, biochemical, uHTS, fluorescence dequenching (AID 1986) | cell-free peptide binding, fluorescence dequenching, 30 min; higher % means a stronger effect | one-dose inhibition, % at 20 µM; IC50 in µM for titrated hits | 0.3% of 290,000 active; in the data active = inhibition mostly above about 52%, no sharp cut-off; inactive = mostly below about 76%; note: some results filed as inactive read as strong as hits
# KOR beta-arrestin-1 = KOR antagonists, beta-arrestin recruitment, cell-based, luminescence, uHTS (AID 1778) | inhibition, % at 10 µM; hits with a dose series show IC50 in µM | KOR beta-arrestin recruitment, luminescence, antagonist mode; higher % means a stronger effect | 0.091% of 290,000 active; note: strong numbers were not always called active
# KOR beta-arrestin-2 = kappa opioid receptor activators – cell-based, luminescence, uHTS, primary screen (AID 1777); KOR beta-arrestin recruitment, luminescence; higher % means a stronger effect; activation, % at 10 µM; hits with a dose series show EC50 in µM; 0.02% of 280,000 active; in the data active = activation above about 50%, passing the limit was not always enough; note: a part of the inactive calls stands beside numbers as strong as those of hits
# Salmonella PhoP GFP = inhibitors of PhoP regulon expression, primary screen, Salmonella Typhimurium, GFP reporter (AID 1863). inhibition, % at 50 µM; hits with a dose series show IC50 in µM. 0.16% of 300,000 active. S. Typhimurium PhoP-regulated promoter GFP reporter, 4 h; higher % means a stronger effect;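 active = inhibition over 29.93%, a cutoff 3 SD above the screen mean, later confirmed by dose response; inconclusive = inhibition over 29.93% but no dose response follow-up; inactive = inhibition at most 29.93% or unconfirmed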;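 note: 0% = low Mg2+ inducing control and 100% = high Mg2+ repressing control; strong numbers were not always called active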
# Myeloid diff MLP GFP+ MAC1+ % = also measured in Myeloid diff MLP; calls as there; GFP+ MAC1+ double positive, %; measured here: differentiation confirmed by MAC1 staining
# * hit, by the source's call; i = inactive; ? = inconclusive; / = no result given; [ ] = another dose, or the depositor's remark. Cut-off read from the data, not from the text of the source, unless noted: active = inhibition above about 50%; inactive = the rest. Not all compounds are listed; the hit share may differ from the screen's.
# Preview:
SMILES,LYP phosphatase,Siah-1 displacement,Myeloid diff MLP,Myeloid diff MLP GFP+ MAC1+ %,HIV fusion peptide,KOR beta-arrestin-1,KOR beta-arrestin-2,Salmonella PhoP GFP
O=C(OCn1ncc(Cl)c(Cl)c1=O)c1ccccc1Cl,-3%,4%,?,/,0.2%,46%,0.0%,-2%
COc1ccc(C(=O)c2c(C(F)(F)F)oc3c2C(=O)c2ccccc2C3=O)cc1OC,-2%,-3%,/,/,-1.9%,-29%,16%,1%
COc1ccccc1/C=C/C(=O)c1c2c(c(C)[nH]c1=O)CCCC2,5%,1%,?,/,-2.6%,-28%,2.5%,0%
COc1ccc(OC)c(S(=O)(=O)Nc2ccc(O)c3ccccc23)c1,-4%,0%,i,0.6,3.3%,-6%,-3.4%,-2%
COc1ccc2c(C(=O)CCl)c[nH]c2c1,-5%,11%,i,2.0,4.2%,13%,0.5%,3%
CCc1ccc(OCC(=O)NC(=S)Nc2ccc(C)cc2C)c(Br)c1,5%,4%,i,6.6,1.7%,-9%,-1.2%,2%
COc1cc(CNc2ccc3[nH]c(=O)[nH]c3c2)ccc1OCc1cccc(C)c1,2%,2%,i,0.2,-0.9%,-46%,-2.8%,-5%
CCOC(=O)c1ccc(NC(=O)c2ccc(C)c(S(=O)(=O)N3CCOCC3)c2)cc1,-2%,2%,i,0.6,-1.2%,-7%,1.8%,0%
CC(=O)n1cc(N(C(=O)CCl)c2ccccc2)c2ccccc21,-6%,5%,i,0.0,2.3%,-5%,5.0%,-2%
CC1=C(C(=O)NC2CCCc3c2cnn3-c2cccc(C)c2C)OCCO1 (stereo not given),-6%,-3%,i,2.4,-0.2%,-36%,6.6%,-5%
COc1cccc(N=Nc2c(N)[nH]n3c(=O)cc(-c4ccccc4)nc23)c1,-3%,3%,i,1.0,-2.4%,-18%,1.9%,-1%

# Main list, repeating the preview:
SMILES,LYP phosphatase,Siah-1 displacement,Myeloid diff MLP,Myeloid diff MLP GFP+ MAC1+ %,HIV fusion peptide,KOR beta-arrestin-1,KOR beta-arrestin-2,Salmonella PhoP GFP
O=C(OCn1ncc(Cl)c(Cl)c1=O)c1ccccc1Cl,-3%,4%,?,/,0.2%,46%,0.0%,-2%
COc1ccc(C(=O)c2c(C(F)(F)F)oc3c2C(=O)c2ccccc2C3=O)cc1OC,-2%,-3%,/,/,-1.9%,-29%,16%,1%
COc1ccccc1/C=C/C(=O)c1c2c(c(C)[nH]c1=O)CCCC2,5%,1%,?,/,-2.6%,-28%,2.5%,0%
COc1ccc(OC)c(S(=O)(=O)Nc2ccc(O)c3ccccc23)c1,-4%,0%,i,0.6,3.3%,-6%,-3.4%,-2%
COc1ccc2c(C(=O)CCl)c[nH]c2c1,-5%,11%,i,2.0,4.2%,13%,0.5%,3%
CCc1ccc(OCC(=O)NC(=S)Nc2ccc(C)cc2C)c(Br)c1,5%,4%,i,6.6,1.7%,-9%,-1.2%,2%
COc1cc(CNc2ccc3[nH]c(=O)[nH]c3c2)ccc1OCc1cccc(C)c1,2%,2%,i,0.2,-0.9%,-46%,-2.8%,-5%
CCOC(=O)c1ccc(NC(=O)c2ccc(C)c(S(=O)(=O)N3CCOCC3)c2)cc1,-2%,2%,i,0.6,-1.2%,-7%,1.8%,0%
CC(=O)n1cc(N(C(=O)CCl)c2ccccc2)c2ccccc21,-6%,5%,i,0.0,2.3%,-5%,5.0%,-2%
CC1=C(C(=O)NC2CCCc3c2cnn3-c2cccc(C)c2C)OCCO1 (stereo not given),-6%,-3%,i,2.4,-0.2%,-36%,6.6%,-5%
COc1cccc(N=Nc2c(N)[nH]n3c(=O)cc(-c4ccccc4)nc23)c1,-3%,3%,i,1.0,-2.4%,-18%,1.9%,-1%
COc1ccc(CN(C)Cc2nc(Cc3cccc(F)c3)no2)c2cccnc12,4%,-4%,i,0.2,1.3%,-13%,2.3%,-11%
Cn1nccc1C(=O)N/N=C/c1c(O)ccc2ccccc12,-8%,2%,?,/,3.4%,-78%,3.3%,-3%
CCC(=O)NC(c1ccc(C)cc1)c1cc([N+](=O)[O-])c2cccnc2c1O (stereo not given),-3%,2%,i,0.5,10%,5%,-3.4%,0%
CC(=O)n1c(Cl)c(NC(=O)CCl)c2ccccc21,-10%,-1%,i,2.7,1.1%,-9%,0.2%,-6%

# Part of the list above, tab-delimited:
SMILES	LYP phosphatase	Siah-1 displacement	Myeloid diff MLP	Myeloid diff MLP GFP+ MAC1+ %	HIV fusion peptide	KOR beta-arrestin-1	KOR beta-arrestin-2	Salmonella PhoP GFP
CC1=C(C(=O)NC2CCCc3c2cnn3-c2cccc(C)c2C)OCCO1 (stereo not given)	-6%	-3%	i	2.4	-0.2%	-36%	6.6%	-5%
COc1cccc(N=Nc2c(N)[nH]n3c(=O)cc(-c4ccccc4)nc23)c1	-3%	3%	i	1.0	-2.4%	-18%	1.9%	-1%

# Continuation:
SMILES,LYP phosphatase,Siah-1 displacement,Myeloid diff MLP,Myeloid diff MLP GFP+ MAC1+ %,HIV fusion peptide,KOR beta-arrestin-1,KOR beta-arrestin-2,Salmonella PhoP GFP
CCC(C)Cn1c(O)cc2nn(-c3nc4ccccc4s3)c(=O)c-2c1C (stereo not given),2%,62%,i,1.4,66%,2%,1.7%,-6%
Fc1ccc(-c2cn3ccccc3n2)cc1,-4%,-7%,i,0.4,0.1%,-24%,-3.5%,2%
Nc1ncnc(N2CCc3ccccc32)c1[N+](=O)[O-],-4%,18%,i,0.0,-1.5%,6%,-2.9%,2%
COc1ccc(-n2cnc3ccccc32)cc1,-1%,2%,i,12,-1.1%,-28%,2.5%,-1%
Cn1c(O)c(N=NC(=S)Nc2ccccc2F)c2cc(S(=O)(=O)N3CCOCC3)ccc21,8%,-4%,i,0.6,0.5%,33%,-9.0%,-8%
COc1cccc(C(NC(C)=O)c2ccc3cccnc3c2O)c1 (stereo not given),-12%,-8%,/,/,-0.4%,-17%[20 µM],-2.1%,10%
COCC1CCN(C(=O)c2cc(COc3cccc4cnccc34)on2)CC1,-6%,8%,i,0.0,0.3%,-5%,3.6%,-3%
O=C(CN1C(=O)c2ccccc2S1(=O)=O)c1ccc2c(c1)OCCCO2,-5%,-8%,i,0.2,-0.8%,4%,/,-8%
O=[N+]([O-])c1ccccc1S(=O)(=O)Nc1cccc2cccnc12,-6%,-10%,/,/,-1.1%,7.8µM*,-6.8%,-1%
Cc1ccc(S(=O)(=O)Nc2cccc3cccnc23)cc1,-1%,-9%,i,0.8,1.2%,2.6µM*,-1.7%,2%
CCOC(=O)c1sc(NC(=O)c2cc(-c3ccccc3)nc3ccccc23)c(C#N)c1C,15%,-2%,i,0.4,27%,-102%,15%,-2%
COc1ccc(NC(=O)/C(Cl)=C(/Cl)S(=O)Cc2ccccc2Cl)cn1 (stereo not given),6%,0%,/,/,-1.4%,44%,-7.9%,12%
COc1ccc(/C(O)=C2/C(=O)C(=O)N(CC3CCCO3)C2c2ccc(OC)c(OC)c2)cc1 (stereo not given),0%,0%,i,1.1,1.3%,-18%,1.6%,-5%
NC(=O)c1sc2nc3c(c(-c4ccccc4)c2c1N)CCC3,2%,-2%,i,0.1,9.0%,20%,-3.3%,8%
Cc1cc(C)c(C(=O)/C=C/c2cccc3ccccc23)c(=O)[nH]1,4%,-3%,?,/,3.2%,-40%,1.0%,-7%
O=C(CSc1nc2nc(-c3cccs3)cc(C(F)(F)F)c2c(=O)[nH]1)Nc1c(F)c(F)c(F)c(F)c1F,7%,9%,i,0.3,46%,-24%,-1.5%,7%
COc1cc(/C=C2/CCC/C(=C\c3cc(O)c(OC)c(Cl)c3)C2=O)cc(Cl)c1O,6%,2%,/,/,21%,-55%,2.3%,-4%
Cc1nc(N)c(C#N)c(-c2cccnc2)c1-c1ccccc1,-8%,10%,i,0.4,3.0%,7%,-3.0%,4%
O=c1cc(-c2ccccc2Cl)oc2c([N+](=O)[O-])c(O)cc(O)c12,3%,5%,i,0.5,60%,-25%,-1.7%,-11%
COC(=O)c1ccccc1OCC(=O)N1CCN(c2ccc(Cl)cc2)CC1,-7%,0%,i,1.9,-1.2%,8%,2.0%,7%
Cc1oc2c(c1C(=O)NCc1cccnc1)C(=O)c1ccccc1C2=O,-4%,3%,/,/,-2.2%,-65%,7.5%,-2%
COc1ccc(C(=O)NC(=S)N(C)C2CCCCC2)cc1Br,5%,3%,i,2.2,-0.8%,-2%,1.5%,-7%
O=[N+]([O-])c1nn(-c2ccc3c(c2)OCCO3)n(O)c1=Nc1ccccc1,-5%,-3%,i,0.4,-1.4%,3%,-0.9%,8%
COc1ccccc1OCCN1C(=O)S/C(=C\c2ccco2)C1=O,5%,-1%,i,1.1,9.4%,-23%,-0.4%,-1%
CC(=O)c1cccc(NC(=O)/C=C/c2ccc([N+](=O)[O-])s2)c1,-7%,6%,/,/,3.9%,-2%,-3.3%,3%
CCc1ccc(S(=O)(=O)/N=C2\C=C(Nc3ccc(O)cc3)C(=O)c3ccccc32)cc1,2%,6%,?,/,-3.0%,-56%,1.7%,15%
N#CC(C#N)=C(Nc1ccc(F)cc1)SCc1cccc(Br)c1,2%,10%,i,0.9,46%,-32%,1.4%,4%
COc1ccc(-c2csc3ncnc(NCCN4CCOCC4)c23)cc1,-5%,3%,i,0.2,0.1%,36%,-3.9%,-7%
CC(=O)c1c(O)c(C)c(O)c2c1OC1=CC(=O)C(C(C)=O)C(=O)[C@@]12C (stereo not given in full),-3%,-2%,i,1.6,25%,17%,2.5%,/
Cc1ccc(N=Nc2ccc(O)c3ncccc23)cc1,-7%,-2%,?,/,0.3%,-2%,-2.8%,1%
COc1cccc(/C=C/c2ccc3cccc(O)c3n2)c1OC,-1%,-1%,i,0.7,-1.9%,/,-7.1%,6%
CCOc1ccc2nc(SCc3ccc(CC(=O)O)cc3)c(C#N)cc2c1,-2%,0%,i,0.1,42%,-40%[20 µM],/,8%
O=C(CSc1cccc2cccnc12)Nc1ccc(S(=O)(=O)N2CCOCC2)cc1,-8%,-11%,i,1.8,-3.4%,28%,1.0%,-6%
O=C(Nc1cccc(Cl)c1Cl)c1snnc1-c1ccccc1,-3%,3%,i,0.0,-0.6%,19%,-0.2%,-4%
CCC(=O)NC(/C=C/c1ccccc1)c1cc([N+](=O)[O-])c2cccnc2c1O (stereo not given),0%,8%,/,/,28%,/,/,-7%
O=C(N/N=C/c1ccc([N+](=O)[O-])s1)c1ccncc1,-5%,-8%,?,/,12%,16%,-5.6%,-26%
Cc1ccc(Cl)cc1NC1=C/C(=N\S(=O)(=O)c2cccs2)c2ccccc2C1=O,-3%,3%,?,2.2,0.8%,-88%,6.1%,21%
C/C(=N\NC(=O)COc1ccccc1-c1ccccc1)c1ccccn1,-5%,-6%,/,/,-2.1%,99%*,-11%,4%
COC(=O)CNC(=O)/C=C/c1ccc(OC)cc1,-3%,-1%,i,1.0,0.9%,-33%,2.1%,1%
O=C(/C=C/c1ccc([N+](=O)[O-])s1)N1CCCCC1,2%,25%,?,/,1.6%,-10%,4.9%,2%
CC(C)Cn1c(N)c(C(=O)CSc2ccc3c(c2)OCCO3)c(=O)n(C)c1=O,-1%,0%,i,0.7,-0.4%,-23%,2.2%,0%
O=C1C(Cl)=C(Nc2ccc(O)cc2)C(=O)c2ccccc21,-10%,5%,?,/,-4.3%,40%,-3.0%,1%
C#Cc1ccc([C@@H]2C=C(C(=O)N3CCN(Cc4ccccc4)CC3)O[C@H](OCCCCO)C2)cc1,-5%,-4%,/,/,3.5%,13%,-2.6%,-2%
CC(=O)c1c(C)n(-c2ccccc2)c2ccc(O)cc12,-2%,1%,i,1.8,-2.2%,40%,3.1%,11%
Cc1ccc(CS(=O)(=O)c2ncc(Cl)c(C(=O)Nc3nnc(C(C)C)s3)n2)cc1,-5%,-5%,?,/,0.6%,-4%,15%,-6%
Cc1cccc(/C=C(\c2nc3ccccc3[nH]2)S(=O)(=O)c2ccccc2)c1,-2%,-5%,i,0.6,-0.4%,12%,-7.9%,8%
COC(=O)c1sccc1NC(=O)Nc1ccc(C)c(C)c1,-8%,2%,i,0.5,0.5%,-20%,-1.4%,-1%
